gsp ag – gsp mutant agonism. hit rate 0.13% among 340,000. AID 624287. gsp mutant cells, cAMP HTRF, 30 min; control for the full effect not named in the record. Potency, µM (highest dose often 76.9 µM), for inactives: at the top dose activation (cAMP increase), hits mostly activators; active = well fitted activation curve with a large enough effect; inconclusive = small, poorly fitted or top-dose-only effect, or another doubt; inactive = no such curve, though single readings can be large or run the other way; cell line not stated here;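 also: phosphodiesterase inhibitor Ro 20-1724 added with compounds to block cAMP breakdown; potency is read from the fitted curve at half-maximal effect; nearly all actives have a fitted effect of over 60% in size; about a fifth of the inactives were tested at one dose only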
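Cells stably selected in G418 were plated at 2000/well, grown 16-24 hr, then given compounds in DMSO with the PDE inhibitor […] (300 uM solution added) for 30 min at 37C; cAMP was read by HTRF.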
CtBP-E1A blk – inhibitors of CtBP/E1A interaction; AID 651724; AlphaScreen GST-E1A/His-CtBP binding, 1536-well; stronger effect = lower value; control for the full effect not named in the record; activity change, % (concentration not given with the values); hit rate 0.49% among 340,000; in the data active means activity change below about -65%; inconclusive means about -30% to -65%; inactive means above about -30%; also: % is scaled to controls: 0 for no effect and ±100 for the full control effect
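GST-E1A and His-tagged CtBP (125 nM each as 5X stock) were preincubated with pin-transferred compound for 2 h at 37 °C in the dark, then glutathione donor and nickel acceptor beads were added for 1 h before AlphaScreen reading.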
TRPV1 PAM – human TRPV1 potentiation; potentiation, % at 8.33 µM; TRPV1-expressing cells, Fluo-8 calcium influx, capsaicin EC20 potentiation; host cell line not named in the record; control for the full effect not named in the record; hit rate 0.02% among 320,000; active means potentiation above 80%; inconclusive means 30% to 80%; inactive means below 30%; also: 0% is about no effect
Target sequence (Q8NER1 whole entry, looked up): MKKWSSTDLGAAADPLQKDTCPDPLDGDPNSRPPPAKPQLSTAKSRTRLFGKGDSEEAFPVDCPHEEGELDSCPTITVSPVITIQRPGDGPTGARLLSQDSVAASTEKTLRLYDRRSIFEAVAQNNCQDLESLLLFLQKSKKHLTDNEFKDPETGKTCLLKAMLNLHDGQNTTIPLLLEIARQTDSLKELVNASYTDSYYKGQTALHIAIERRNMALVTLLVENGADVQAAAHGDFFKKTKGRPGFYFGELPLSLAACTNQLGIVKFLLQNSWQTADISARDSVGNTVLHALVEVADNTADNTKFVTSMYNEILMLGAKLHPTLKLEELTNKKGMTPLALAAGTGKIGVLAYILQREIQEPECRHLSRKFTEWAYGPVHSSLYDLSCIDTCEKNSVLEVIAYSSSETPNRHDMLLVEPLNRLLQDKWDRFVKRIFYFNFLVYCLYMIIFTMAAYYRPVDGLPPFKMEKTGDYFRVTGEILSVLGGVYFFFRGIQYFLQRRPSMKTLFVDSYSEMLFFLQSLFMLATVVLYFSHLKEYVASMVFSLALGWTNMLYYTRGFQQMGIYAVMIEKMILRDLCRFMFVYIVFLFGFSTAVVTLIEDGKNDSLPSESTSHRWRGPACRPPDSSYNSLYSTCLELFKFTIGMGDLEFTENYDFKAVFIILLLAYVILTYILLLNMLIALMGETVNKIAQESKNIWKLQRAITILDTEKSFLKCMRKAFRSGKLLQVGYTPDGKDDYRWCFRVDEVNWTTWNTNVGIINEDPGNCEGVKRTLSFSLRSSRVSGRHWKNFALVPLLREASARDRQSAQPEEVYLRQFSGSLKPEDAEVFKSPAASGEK
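Fluo-8 calcium influx in TRPV1-expressing cells, kinetic read (ex 480/em 520 nm). Compound added and read 3 min for agonist activity, followed by capsaicin at EC20 final and 2 min further read for enhancement.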
ClpP mod – qHTS Assay for Activators of ClpP; hit rate 1.9% among 340,000; ATP-dependent Clp protease proteolytic subunit (Bacillus subtilis (strain 168)), P80244; purified B. subtilis ClpP, FRET peptide cleavage, 20 min; Potency, µM (titrated, usually from 57.5 µM), without a hit: at the highest dose activity change, negative = active; active = well fitted falling curve with a large enough effect; inconclusive = small, poorly fitted or top-dose-only effect; inactive = no such curve, though single readings can be large or run the other way; also: potency is read from the fitted curve at half-maximal effect; the source files actives as falling curves though it sought activators and does not explain the sign; nearly all actives have a fitted effect of over 65% in size; many hits overshoot -100%
Target sequence (P80244 whole entry, looked up): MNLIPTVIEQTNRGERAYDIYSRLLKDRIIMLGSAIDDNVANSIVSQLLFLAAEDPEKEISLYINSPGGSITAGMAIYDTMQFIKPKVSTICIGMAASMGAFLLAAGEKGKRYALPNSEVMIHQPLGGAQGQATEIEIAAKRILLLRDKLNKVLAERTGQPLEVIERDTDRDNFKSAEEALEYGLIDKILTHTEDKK
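Purified B. subtilis ClpP, 10 microg/mL final in Tris/HCl pH8 with KCl, BSA, glycerol and Tween-20, cleaved an Abz/nitrotyrosine-quenched decapeptide. Fluorescence (ex 320, em 430) was read at 0 and 20 min at room temperature. Delta was normalized to 5.8 microM ADEP and DMSO/no-enzyme controls.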
gsp antag – antagonists of gsp mutant (McCune-Albright syndrome); gsp-mutant cells, cAMP HTRF, 30 min; control for the full effect not named in the record; Potency, µM (titrated, usually from 76.9 µM), without a hit: top-dose activity change, negative = inhibition, actives largely listed as inhibitors; hit rate 0.4% among 340,000; active = falling curve of any shape with a large fitted effect; inconclusive = falling curve, mostly with a smaller effect; inactive = flat or rising curve; cell line not stated here;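 also: intracellular cAMP measured with PDE inhibitor Ro 20-1724 present during compound exposure; potency is read from the fitted curve at half-maximal effect; % is scaled to controls: 0 for no effect and ±100 for the full control effect; nearly all actives have a fitted effect of over 65% in size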
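HTRF cAMP read-out (cAMP-d2 plus anti-cAMP antibody-K in lysis buffer, 30 min RT). Before lysis, cells are exposed to compounds with […] for 30 min at 37C in DPBS containing Ca/Mg, BSA and Tween 20.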
Sfp inh – Sfp phosphopantetheinyl transferase inhibition; Q9F4F7; Biochemical Sfp PPTase activity, qHTS; Potency, µM, without a hit: max response, negative = inhibition, usual class: inhibitors; hit rate 3.5% among 310,000; AID 1490; active = well fitted inhibition curve with a large enough effect; inconclusive = small, poorly fitted or top-dose-only effect, or another doubt; inactive = no such curve, though single readings can be large or run the other way;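 also: the enzyme is Sfp with the accession as filed and its product quenches rhodamine fluorescence; potency is read from the fitted curve at half-maximal effect; 0% = enzyme reaction without inhibitor and -100% = no enzyme wells; top concentration of the series not given in the record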
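With Hepes-Na pH 7.6 buffer containing 10 mM MgCl2, Sfp (15 nM) modified BHQ-2-YbbR (12.5 uM) using rhodamine-CoA (5 uM). Two reads 30 minutes apart at 525/598 nm yielded each well's rate.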
Menin-MLL FL inh – inhibitors of human menin-MLL interaction, wild-type MLL peptide; AID 1766; Fluorescence polarization, fluorescein-MLL peptide displacement from menin; 290,000 tested, under 10 active; FP activity change, % at 61.4 µM; inconclusive = falling polarisation curve, or a change in total fluorescence; inactive = total fluorescence flat and polarisation flat or rising; no compound was filed as active; the % refers to the polarisation; negative = inhibition;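 also: % of control where 0% means no effect; inhibitors lower the polarisation; unlabelled MLL peptide was the positive control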
* marks the source's active call; other numbers are inactive results; ? = inconclusive; . = not tested or not shown; [ ] = another dose, or the depositor's remark.

SMILES | CtBP-E1A blk | gsp antag | ClpP mod | TRPV1 PAM | Menin-MLL FL inh | Sfp inh | gsp ag
CCN(CC(=O)Nc1c(F)cccc1F)C(=O)c1ccc(S(=O)(=O)N2CCCC2)cc1 | 10.0 | 11.8% | -0.9% | -1.3 | . | . | -8.4%
COc1cccc(C(=O)NCC(C)(C)SCc2ccc(F)cc2)c1 | . | -10.3% | 1.1% | -9.0 | 0.0 | 0.8% | -18.8%
CC(Sc1nnc(-c2cccnc2)n1-c1ccccc1F)C(=O)N1CCCc2ccccc21 (centres undefined) | . | . | . | -1.5 | 8.9 | 15.5% | .
CCCn1c(SCC(=O)O)nc2ccccc21 | 3.8 | -3.0% | -0.1% | -1.3 | 4.5 | 18.0% | -5.4%
Cc1noc(C)c1COC(=O)[C@@H](NC(=O)c1ccccc1Cl)C(C)C | 9.0 | 0.6% | . | -0.4 | -3.6 | -15.6% | -12.2%
Cc1nn(C)c(C)c1Sc1ccc(Br)cc1 | 4.5 | -4.7% | -0.5% | 2.0 | -2.6 | -1.3% | -4.5%
O=C(Nc1cccc(F)c1)Nc1ccccn1 | 3.7 | 3.8% | -2.3% | -43.8 | 0.1 | 23.3% | -2.6%
COc1ccc(NC(=S)Nc2ccc(OCc3ccccc3)cc2)c(OC)c1 | -22.9 | -21.9% | -1.8% | -17.7 | 2.9 | -13.0% | 4.9%
Cc1coc2c(O)cc3c(c12)OC1(N2CCCCC2)C(=O)NCCCC31 (centres undefined) | ? | -0.4% | -2.6% | 12.9 | -9.7 | 28.2µM* | -52.0%[inhibitor]
CC/C(=N/NC(=O)c1ccccc1)c1ccc(OCCN2CCOCC2)cc1 | -3.4 | -22.3% | ? | -29.1 | 1.0 | 2.0% | 15.8%
COc1ccc(C(=O)N(Cc2ccc(N(C)C)cc2)C2CCS(=O)(=O)C2)cc1 (centres undefined) | -0.3 | -12.3% | -0.3% | -0.1 | 2.4 | 1.2% | -0.9%
O=C(Cc1ccc2ccccc2c1)NC(Cc1ccccc1)C(=O)O (centres undefined) | -0.7 | 6.1% | -2.5% | . | . | . | .
CC(OC(=O)C1CCN(S(=O)(=O)c2ccc3c(c2)OCCO3)CC1)C(=O)NC1(C#N)CCCCC1 (centres undefined) | -16.6 | -6.6% | -3.4% | . | . | . | 22.8%
CCN1CCN(Cc2ccc(NC(=O)c3ccc(C)c(NC(=O)c4cc(-c5ccc(Br)cc5)n[nH]4)c3)cc2C(F)(F)F)CC1 | -27.7 | 7.5% | ? | -0.3 | 4.5 | 79.4µM* | .
CCC(CO)Nc1ncnc2onc(-c3ccc(F)cc3)c12 (centres undefined) | -3.6 | -8.2% | . | 0.1 | 1.4 | 10.3% | 2.4%
COc1ccc(Br)cc1[C@H]1[C@@H]2C=CCC[C@@]2(C)C(=O)N1Cc1ccccc1 | -25.4 | -20.0% | -9.4% | -8.6 | -1.0 | -15.5% | .
CCOc1ccc2nc(NC(=O)Cn3[nH]c(=O)c4ccccc4c3=O)sc2c1 | . | -4.5% | -5.5% | 13.1 | ? | -11.6% | -20.0%
CC(C)OC(=O)c1c(NC(=O)c2ccco2)sc2c1CCCC2 | -5.3 | 1.4% | ? | -6.5 | 3.5 | 10.9% | 2.8%
COCCOCCOCCC(=O)NC1CC2CCC1(C)C2(C)C (centres undefined) | 1.7 | 10.9% | 0.1% | -0.6 | -2.9 | 11.5% | -4.6%
COc1cc(Cl)cc(C2NC(=S)NC(c3ccccc3)=C2C(C)=O)c1OCC(=O)O (centres undefined) | 2.7 | -4.4% | . | 3.8 | 7.8 | ? | 5.1%[15.4 µM]
CCc1cccc(NC(=O)CCNS(=O)(=O)c2cccc3nonc23)c1 | 5.0 | 2.7% | -2.6% | 2.8 | -0.3 | 20.8% | 0.0%[15.4 µM]
COc1ccc2[nH]c3c(c2c1)CCN1C(=O)C(CC(=O)NCCc2ccccn2)C[C@H](C(=O)N2CCCCC2)[C@@]31C (some centres undefined) | 2.2 | -4.6% | -3.1% | . | . | . | .
CCOC(=O)C1(CC2CC2)CCN(C(=O)c2cc(OC)nc3ccccc23)CC1 | -3.5 | -5.3% | . | -18.3 | 2.1 | 1.8% | -2.4%
NC(=O)C1CCN(Cc2nc3cc(Cl)ccc3c(=O)[nH]2)CC1 | 6.3 | -10.0% | -1.4% | 5.9 | 1.6 | -7.3% | 0.4%
Cc1ccc(F)cc1NC(=O)c1cccc(N(C)C)c1 | 3.9 | -2.4% | -0.7% | 16.6 | -4.8 | 1.2% | 27.2%
CC(C)C[C@H](NC(=O)N1CCn2c1nc1ccccc12)C(=O)NC1CCCCC1 | 8.5 | 10.6% | -1.1% | -26.9 | 0.9 | 21.8% | 38.1%
CCN(CC)c1ccc(S(=O)(=O)N2CCOCC2)cc1NC(=O)CSc1n[nH]c(N)n1 | . | -4.4% | 1.8% | 7.4 | -1.2 | 18.4% | 1.6%
CCOc1ccc(S(=O)(=O)N/N=C\c2ccc3c(c2)OCO3)cc1 | -6.1 | 1.5% | -6.0% | ? | 0.6 | 5.3% | -26.3%
O=C(CC1C(=O)NCCN1C(=O)Nc1ccc(C(F)(F)F)cc1)Nc1ccc(F)cc1 (centres undefined) | -8.7 | -2.0% | -0.5% | -18.3 | -3.0 | 7.3% | 17.2%
Cc1c(NP(=O)(c2ccc(Br)cc2)c2ccc(Br)cc2)c(=O)n(-c2ccccc2)n1C | 3.6 | 0.6% | . | -14.6 | -3.5 | 10.3% | -39.5%[inhibitor]
O=C(COc1ccccc1)NCC(=O)N1CCCC1 | 0.1 | 9.9% | . | 12.5 | -2.1 | 23.8% | -5.6%[15.4 µM]
CCc1c(O)nc(SCc2ccc(F)cc2)[nH]c1=O | 0.1 | -1.6% | 1.4% | -5.0 | -1.0 | 14.5% | -4.4%[15.4 µM]
Cc1nnc(SCc2nnc(-c3cccs3)o2)n1Cc1ccccc1 | 4.7 | 9.5% | -0.7% | -11.5 | -3.3 | -1.9% | 4.2%[15.4 µM]
NS(=O)(=O)c1ccc(NC(=S)NCc2ccc3c(c2)OCO3)cc1 | 7.0 | -0.2% | -1.3% | -11.4 | -3.6 | 20µM* | 2.2%[15.4 µM]
c1ccc(N2CCN(c3nc4ccccc4[nH]3)CC2)nc1 | 7.8 | 12.6% | . | -16.7 | -0.1 | -0.6% | 1.4%[15.4 µM]
O=C(O)/C=C/C(=O)Nc1ccccc1-c1ccccc1 | 12.4 | 5.5% | 25.1µM* | 1.2 | -0.5 | 31.6µM* | -13.1%
COc1cc(C(=O)OCC(=O)N2CCCCC2C)cc(NC(=O)c2cccs2)c1OC (centres undefined) | -5.8 | -69.5% | . | -13.6 | 0.2 | -7.9% | 19.5%[15.4 µM]
CCCCn1c(SCC(=O)Nc2cc(C)on2)nnc1-c1cccnc1 | 3.0 | -1.3% | 0.1% | 0.9 | -0.2 | -1.4% | 11.4%
COc1ccc(S(=O)(=O)NCc2cccnc2)cc1C(=O)Nc1ccccc1 | -1.0 | 5.5% | -6.5% | -12.7 | -5.0 | -0.5% | -84.8%[inhibitor]
CNc1nc(Cl)nc(NC(C)(C)C)n1 | -0.9 | 12.9% | 5.1% | . | 7.8 | 5.5% | -16.1%
COc1ccc(CCn2c(C)cc(C(=O)CSc3nnnn3-c3ccccc3)c2C)cc1 | 2.4 | -0.8% | -5.0% | -4.6 | -1.1 | ? | 13.3%
CCCC(c1nnnn1Cc1ccccc1)N1CCN(c2ccccc2OC)CC1 (centres undefined) | -0.3 | 0.8%[15.4 µM] | -6.5% | -6.7 | -2.0 | 6.2% | 0.8%
Cc1cccc(N(CC(=O)Nc2ccccc2-c2ccccc2)S(=O)(=O)c2ccccc2)c1C | -15.7 | 1.7% | -3.3% | 0.6 | -0.6 | -0.9% | -7.2%
CC(=O)c1ccc(NC(=O)CNc2cc(S(=O)(=O)N3CCOCC3)ccc2N2CCCC2)cc1 | -6.0 | -11.7% | -9.9% | -8.8 | . | . | -0.6%
COc1ccc(/C=C/c2cc(C(F)(F)F)on2)cc1 | 9.1 | 2.6% | . | 4.3 | 1.3 | 11.3% | -19.9%
O=C(CSc1c2c(nc3cc(Cl)ccc13)CCCC2)NCCCN1CCOCC1 | . | -6.2% | 0.4% | -12.4 | 0.3 | 18.5% | ?
COc1cccc(CN(CC(=O)NCc2ccc(F)cc2)C(=O)c2ccco2)c1 | 16.4 | -3.7% | 0.1% | 2.6 | -3.1 | 0.2% | 14.6%[15.4 µM]
O=C(c1ccc2c3c(cccc13)CC2)C1CCCN(C(=O)c2ccc[n+]([O-])c2)C1 (centres undefined) | 3.5 | -2.4% | 3.6% | 0.1 | 1.3 | 15.4% | 17.5%
CCC(c1nc2ccccc2c(=O)n1CCN1CCOCC1)N1C(=O)c2ccccc2C1=O (centres undefined) | -3.7 | 5.0% | -0.1% | ? | 0.8 | 3.1% | 21.9%
COc1ccc(N(CC(=O)N2CCCCCC2)S(C)(=O)=O)cc1Cl | 2.7 | -5.6% | -1.0% | 4.4 | 1.6 | 14.1% | 1.9%
Cc1cnc(NC(=O)Cn2cnc3c2c(=O)n(C)c(=O)n3C)s1 | 5.2 | 17.4% | . | 4.2 | -2.0 | 3.9% | 0.3%[15.4 µM]
O=C(CC12CC3CC(CC(C3)C1)C2)NCC(c1ccc(F)cc1)N1CCOCC1 (centres undefined) | 3.1 | 4.1% | . | 3.3 | 2.9 | -19.5% | 12.4%
CN(Cc1ccsc1)C(=O)CCc1nnc(CCCc2ccccc2)o1 | -7.7 | 8.1% | -1.8% | ? | 1.7 | 2.3% | -0.2%
COc1ccc(Nc2nc(-c3cccs3)cs2)cc1 | -9.8 | 7.8% | -4.0% | 10.6 | 3.0 | ? | 29.3%
Cc1ccc(S(=O)(=O)NCCC(=O)N2CCOCC2)cc1C | 0.7 | 12.9% | -2.0% | -4.2 | . | . | -4.6%
CCOc1ccc(-c2c(C(=O)N/N=C/c3ccccc3)nnn2-c2nonc2N)cc1 | -9.3 | -10.9% | . | 6.5 | 5.1 | 23.0% | 3.1%[15.4 µM]
Cc1ccc(Cl)cc1Nc1nc(-c2sc(NC(=O)C(C)(C)C)nc2C)cs1 | 20.7 | 2.4% | -21.7% | 25.4 | 3.7 | -7.4% | .
CCOc1ccccc1CNC(=O)Cn1ccc2cc(S(=O)(=O)N3CCC(C)CC3)ccc21 | -9.5 | -13.4% | -5.1% | -1.9 | -0.8 | 21.4% | ?
